Screening data as filed in PubChem BioAssay.
ID4 binder – ID4 (human) binding; P47928; small molecule microarray, Flag-ID4 binding, fluorescence F/B; calls only; actives 1.2% (n = 31,000);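 active means spot signal over background at p below 0.07 in all four prints; compounds were printed on slides so no solution concentration is given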;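 further: a binder raises fluorescence above local background on the spot; about 2 pmol printed per array spot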
Target sequence (P47928 whole entry, looked up): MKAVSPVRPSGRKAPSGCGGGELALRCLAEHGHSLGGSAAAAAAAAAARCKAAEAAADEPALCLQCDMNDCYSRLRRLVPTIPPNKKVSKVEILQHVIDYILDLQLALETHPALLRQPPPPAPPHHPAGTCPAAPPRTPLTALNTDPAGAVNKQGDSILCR
p53 mut binder – binders of human mutant p53; small molecule microarray binding, anti-GST fluorescence; calls only; actives 0.4% (n = 17,000); AID 624136;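 active means compounds whose four printed spots each glow above background more than chance allows, each with a p-value under 7%; compounds were printed on slides so no solution concentration is given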;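 further: about 2 pmol printed per array spot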
Myc binder – c-Myc (human) binding. actives 1.5% (n = 17,000). small molecule microarray, His-c-Myc binding, anti-His fluorescence. P01106. AID 624141. calls only;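 active means spot fluorescence over background with P-value below 7% in all four replicate spots, showing protein binding; compounds were printed on slides so no solution concentration is given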;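 further: score is binary with 100 for all four spots passing and 0 otherwise; about 2 pmol printed per array spot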
Target sequence (P01106 whole entry, looked up): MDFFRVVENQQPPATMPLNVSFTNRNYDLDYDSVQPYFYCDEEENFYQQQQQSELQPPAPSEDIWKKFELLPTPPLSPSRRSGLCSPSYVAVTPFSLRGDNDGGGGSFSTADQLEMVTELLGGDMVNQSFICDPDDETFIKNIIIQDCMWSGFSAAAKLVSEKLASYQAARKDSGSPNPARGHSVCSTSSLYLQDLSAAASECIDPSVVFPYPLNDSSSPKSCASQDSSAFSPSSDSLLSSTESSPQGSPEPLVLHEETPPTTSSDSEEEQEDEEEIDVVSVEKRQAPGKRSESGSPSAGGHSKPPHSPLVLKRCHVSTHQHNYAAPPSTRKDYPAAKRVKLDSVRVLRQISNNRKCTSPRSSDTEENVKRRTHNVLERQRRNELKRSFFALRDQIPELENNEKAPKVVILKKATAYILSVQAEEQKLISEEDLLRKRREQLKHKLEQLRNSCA
STAT3 binder – binds human STAT3 on microarray. P40763. Small molecule microarray, His-STAT3 binding, anti-His fluorescence. AID 624138. actives 0.2% (n = 17,000). calls only;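 active means compounds whose four printed spots each show fluorescence over background unusually high for their array block, chance value under 7%; compounds were printed on slides so no solution concentration is given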;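 further: about 2 pmol printed per array spot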
Calls only; i = inactive; / = not tested or not shown; + = active, no number. A portion of the library (hit frequency here may not be typical).

# | SMILES | Myc binder | p53 mut binder | STAT3 binder | ID4 binder
1 | C[C@@H]1CCCCO[C@H](CN(C)C(=O)C2CCCCC2)[C@H](C)CN([C@H](C)CO)C(=O)c2cc(NC(=O)c3ccncc3)ccc2O1 | i | i | i | i
2 | C[C@H](CO)N1C[C@H](C)[C@H](CN(C)S(=O)(=O)c2ccc(F)cc2)Oc2c(NS(=O)(=O)c3cn(C)cn3)cccc2C1=O | i | i | i | i
3 | C[C@@H]1CCCCO[C@H](CN(C)C)[C@@H](C)CN([C@@H](C)CO)C(=O)c2cc(NC(=O)Nc3ccc(F)cc3)ccc2O1 | i | i | i | i
4 | Cc1nnc(SCC(=O)Nc2ccccc2N2CCOCC2)s1 | i | i | i | i
5 | COc1ccc(S(=O)(=O)Nc2cccc3c2O[C@@H](CN(C)S(=O)(=O)c2ccc(Cl)cc2)[C@H](C)CN([C@@H](C)CO)C3=O)cc1 | i | i | i | /
6 | C[C@H](CO)N1C[C@H](C)[C@H](CN(C)C(=O)NC2CCCCC2)Oc2c(NS(=O)(=O)c3cn(C)cn3)cccc2C1=O | i | i | i | i
7 | C=CCOC(=O)[C@H]1[C@@H]2C(=O)O[C@@H](c3ccccc3)[C@@H](c3ccccc3)N2[C@@H](c2ccc(OCCOC(=O)[C@@H]3C[C@@H]4C(=O)N[C@@H](Cc5ccccc5)C(=O)N4[C@@H]3c3cccc(OCCO)c3)cc2)[C@]12C(=O)Nc1ccc(I)cc12 | i | i | i | i
8 | CCc1c(O)nc(SCC(=O)Nc2ccccc2OC)n(-c2ccccc2)c1=O | i | i | i | i
9 | Cc1noc(C)c1NC(=O)N(C)C[C@H]1Oc2ccc(NC(=O)Cc3cn(C)c4ccccc34)cc2CC(=O)N([C@@H](C)CO)C[C@@H]1C | i | i | i | i
10 | COc1cccc(CNc2nc3nc(C)c(Cc4ccccc4)c(=O)n3[nH]2)c1 | i | i | i | +
11 | Cc1noc(C)c1NC(=O)N(C)C[C@H]1Oc2ccc(NC(=O)NC3CCCCC3)cc2C(=O)N([C@@H](C)CO)C[C@@H]1C | i | i | i | i
12 | C=CCOC(=O)C1=C[C@@H](c2ccc(C(F)(F)F)cc2)[C@H](CCCO)[C@@H](OCC)O1 | i | i | i | i
13 | OCCNc1nc2ccccc2n1CCOc1ccccc1 | i | i | i | i
14 | C[C@H](CO)N1C[C@H](C)[C@@H](CN(C)C(=O)Nc2ccc(F)cc2)Oc2ccc(NC(=O)C3CC3)cc2C1=O | i | i | i | i
15 | COc1ccc(NC(=O)Nc2cccc3c2O[C@@H](CN(C)Cc2ccc(C(=O)O)cc2)[C@H](C)CN([C@@H](C)CO)C3=O)cc1 | i | i | i | i
16 | COc1c(O)cc(-c2oc3cc(O)cc(O)c3c(=O)c2O[C@@H]2O[C@@H](C)[C@H](O)[C@@H](O)[C@H]2O)cc1O | i | i | i | i
17 | COC(=O)C(C)N(C#N)c1nc(C)cc(C)n1 (stereo unspecified) | i | i | i | i
18 | CCOc1ccc(NC(=O)C2CC(=O)n3c(nc4ccccc43)N2)cc1 (stereo unspecified) | i | i | i | i
19 | Cc1noc(C)c1S(=O)(=O)Nc1ccc2c(c1)C(=O)N([C@@H](C)CO)C[C@H](C)[C@H](CN(C)C(=O)c1ccncc1)OCCCC[C@@H](C)O2 | i | i | i | i
20 | C[C@@H]1CN([C@H](C)CO)C(=O)Cc2cc(NC(=O)c3ccncc3)ccc2O[C@H]1CN(C)S(=O)(=O)c1ccccc1 | i | i | i | i
21 | Cc1cc(C)c(NC(=O)CSc2nnc(-c3ccc(F)cc3)n2C)c(C)c1 | i | i | i | i
22 | CNC[C@@H]1OCCCC[C@@H](C)Oc2ccc(NC(=O)Nc3cccc4ccccc34)cc2C(=O)N([C@@H](C)CO)C[C@H]1C | i | i | i | i
23 | CC(=O)c1ccc(NC(=O)CSc2nc(C)cc(C)c2C#N)cc1 | i | i | i | i
24 | C[C@H](CO)N1C[C@H](C)[C@@H](CN(C)Cc2ccc3cccnc3c2)OCc2cnnn2CCCC1=O | i | i | i | /
25 | C[C@H](CO)N1C[C@H](C)[C@H](CN(C)CC2CC2)Oc2ccc(NC(=O)Cc3ccccc3)cc2CC1=O | i | i | i | i
26 | O=C(Cc1ccc(O)cc1)OC1[C@@H](O)[C@@H](O)C(OC(=O)Cc2ccc(O)cc2)[C@H](O)[C@@H]1O (stereo partly specified) | i | i | i | /
27 | CC(C)NC(=O)N(C)C[C@@H]1OCCCC[C@H](C)Oc2ccc(NC(=O)c3ccncc3)cc2C(=O)N([C@@H](C)CO)C[C@H]1C | i | i | i | i
28 | C[C@H]1CN([C@@H](C)CO)C(=O)Cc2cc(NC(=O)Nc3ccc4c(c3)OCO4)ccc2O[C@H]1CN(C)CC1CC1 | i | i | i | i
29 | O=C(C1=C[C@H](c2coc3ccccc3c2=O)C[C@H](OCCCCO)O1)N1CCN(Cc2ccc3c(c2)OCO3)CC1 | i | i | i | i
30 | C[C@H](CO)N1C[C@H](C)[C@@H](CN(C)S(=O)(=O)c2cn(C)cn2)Oc2ccc(NC(=O)C3CC3)cc2C1=O | i | i | i | i
31 | CCC(C)c1cnc(Cc2ccccc2)c(=O)[nH]1 (stereo unspecified) | i | i | i | /
32 | CNC[C@H]1OCCCC[C@H](C)Oc2ccc(NC(=O)NC(C)C)cc2C(=O)N([C@@H](C)CO)C[C@@H]1C | i | i | i | i
33 | O=S(=O)(c1ccccc1)c1nc(-c2ccco2)oc1NCc1cccnc1 | i | i | i | i
34 | C[C@H](CO)N1C[C@H](C)[C@H](CN(C)C(=O)Nc2ccc(C(F)(F)F)cc2)Oc2ccc(NC(=O)Nc3ccccc3)cc2CC1=O | i | i | i | i
35 | Cc1ccc(NC(=O)CSc2nnc(-c3ccco3)n2-c2ccccc2)cc1Cl | i | i | i | i
36 | COc1ccc([C@H]2C[C@H]3C(Br)=CC2C(=O)[C@]32CO2)cc1OC | i | i | i | i
37 | C[C@H](CO)N1C[C@H](C)[C@@H](CN(C)C(=O)Nc2ccccc2)Oc2ccc(N(C)C)cc2C1=O | i | i | i | i
38 | C[C@H](CO)N1C[C@H](C)[C@@H](CN(C)CC2CC2)Oc2ccc(NS(C)(=O)=O)cc2CC1=O | i | i | i | i
39 | CCOC(=O)CSc1nc(-c2ccccc2)c2cc(Cl)ccc2n1 | i | i | i | i
40 | C[C@H]1CN([C@@H](C)CO)C(=O)c2cccc(NS(C)(=O)=O)c2O[C@H]1CN(C)S(=O)(=O)c1cccs1 | i | i | i | i
41 | C[C@H](CO)N1C[C@H](C)[C@@H](CN(C)Cc2ccc(C(F)(F)F)cc2)OCCCC[C@H](C)Oc2ccc(N(C)C)cc2C1=O | i | i | i | /
42 | C[C@@H]1CN([C@H](C)CO)C(=O)c2cc(NS(=O)(=O)c3cccs3)ccc2O[C@@H](C)CCCCO[C@H]1CN(C)S(=O)(=O)c1cccs1 | i | i | i | i
43 | COc1ccc(NC(=O)C(OC(=O)c2ccccc2)c2cccs2)cc1 (stereo unspecified) | i | i | i | i
44 | C=CCOC(=O)C1=C[C@H](c2coc3ccccc3c2=O)C[C@H](OCCCCO)O1 | i | i | i | /
45 | C[C@@H]1CCCCO[C@@H](CN(C)Cc2ccc(C(=O)O)cc2)[C@H](C)CN([C@@H](C)CO)C(=O)c2cc(NC(=O)C3CCCCC3)ccc2O1 | i | i | i | i
46 | C[C@H](CO)N1C[C@H](C)[C@H](CN(C)C(=O)Nc2ccccc2)Oc2ccc(NC(=O)CCC(F)(F)F)cc2C1=O | i | i | i | i
47 | C[C@@H]1O[C@@H](O[C@H]2[C@@H]3C=CO[C@@H](O[C@@H]4O[C@H](CO)[C@@H](O)[C@H](O)[C@H]4O)[C@@H]3[C@@]3(CO)O[C@@H]23)[C@H](OC(=O)/C=C/c2ccc(O)cc2)[C@H](O)[C@H]1O | i | i | i | /
48 | COc1ccc(CN(C)C[C@H]2OCCCC[C@H](C)Oc3ccc(NC(=O)Nc4ccc(F)cc4)cc3C(=O)N([C@H](C)CO)C[C@H]2C)cc1 | i | i | i | /
49 | Cc1cc(Cl)c(S(N)(=O)=O)cc1OCC(=O)NC1CCCCC1 | i | i | i | i
50 | C[C@H](CO)N1C[C@H](C)[C@H](CN(C)S(=O)(=O)c2ccccc2)OCCCC[C@H](C)Oc2ccc(NC(=O)C3CCCCC3)cc2C1=O | i | i | i | i
51 | Cc1[nH]c2ccccc2c1C(=O)CSc1nncn1C | i | i | i | i
52 | C[C@H](CO)N1C[C@H](C)[C@H](CN(C)C(=O)Nc2ccc3c(c2)OCO3)OCCCC[C@H](C)Oc2ccc(NC(=O)c3ccccc3)cc2C1=O | i | i | i | /
53 | O=C(CC(C(=O)O)N1CCCCC1)Nc1ccccc1 (stereo unspecified) | i | i | i | i
54 | C[C@H]1CN([C@@H](C)CO)C(=O)CCCn2nncc2CO[C@H]1CN(C)C(=O)c1ccccc1 | i | i | i | i
55 | C[C@H](CO)N1C[C@H](C)[C@@H](CN(C)C(=O)Nc2ccc(F)cc2)OCCCC[C@H](C)Oc2ccc(NS(=O)(=O)c3ccccc3)cc2C1=O | i | i | i | i
56 | C[C@H](CO)N1C[C@H](C)[C@H](CN(C)C)Oc2ccc(NS(=O)(=O)c3ccccc3)cc2C1=O | i | i | i | i
57 | C[C@H](CO)N1C[C@H](C)[C@H](CN(C)C(=O)Nc2cccc3ccccc23)Oc2c(NC(=O)C3CCOCC3)cccc2C1=O | i | i | i | i
58 | Cc1noc(C)c1NC(=O)N(C)C[C@H]1OCCCC[C@H](C)Oc2ccc(NC(=O)CCC(F)(F)F)cc2C(=O)N([C@H](C)CO)C[C@@H]1C | i | i | i | i
59 | C[C@@H]1CCCCO[C@@H](CN(C)Cc2ccc(C(=O)O)cc2)[C@@H](C)CN([C@@H](C)CO)C(=O)c2cc(NS(=O)(=O)c3cn(C)cn3)ccc2O1 | i | i | i | /
60 | C[C@H](CO)N1C[C@H](C)[C@@H](CN(C)S(=O)(=O)c2cn(C)cn2)Oc2c(NC(=O)C3CC3)cccc2C1=O | i | i | i | /

(cont.)
# | SMILES | Myc binder | p53 mut binder | STAT3 binder | ID4 binder
61 | Cc1noc(C)c1NC(=O)N(C)C[C@@H]1Oc2c(NC(=O)c3ccncc3)cccc2C(=O)N([C@@H](C)CO)C[C@@H]1C | i | i | i | i
62 | Cn1c(NCCCO)nc2ccccc21 | i | i | i | i
63 | Cc1ccc(S(=O)(=O)N(C)C[C@H]2OCCCC[C@H](C)Oc3ccc(NC(=O)Nc4ccc5c(c4)OCO5)cc3C(=O)N([C@@H](C)CO)C[C@H]2C)cc1 | i | i | i | /
64 | C[C@@H]1CN([C@@H](C)CO)C(=O)Cc2cc(NC(=O)NC3CCCCC3)ccc2O[C@H]1CN(C)Cc1ccccc1 | i | i | i | i
65 | C[C@]12C[C@H](O)C3C(CC[C@@H]4C[C@H](O)CC[C@]34C)C1CC[C@@H]2C(=O)CO (stereo partly specified) | i | i | i | i
66 | C[C@@H]1CCCCO[C@H](CN(C)C(=O)CCC(F)(F)F)[C@H](C)CN([C@H](C)CO)C(=O)c2cc(NS(=O)(=O)c3cccs3)ccc2O1 | i | i | i | i
67 | Cc1noc(C)c1S(=O)(=O)Nc1ccc2c(c1)CC(=O)N([C@H](C)CO)C[C@@H](C)[C@H](CN(C)C)O2 | i | i | i | i
68 | Cc1noc(C)c1S(=O)(=O)Nc1cccc2c1O[C@H](CN(C)Cc1ccc(Oc3ccccc3)cc1)[C@H](C)CN([C@H](C)CO)C2=O | i | i | i | i
69 | C[C@@H]1CN([C@H](C)CO)C(=O)c2cccc(NC(=O)Nc3ccc(C(F)(F)F)cc3)c2O[C@@H]1CN(C)S(=O)(=O)c1cn(C)cn1 | i | i | i | i
70 | Cc1noc(C)c1NC(=O)Nc1ccc2c(c1)C(=O)N([C@@H](C)CO)C[C@@H](C)[C@@H](CN(C)C(=O)C1CCCCC1)OCCCC[C@H](C)O2 | + | i | i | i
71 | Cc1noc(C)c1S(=O)(=O)N(C)C[C@@H]1Oc2ccc(N(C)C)cc2CC(=O)N([C@H](C)CO)C[C@@H]1C | i | i | i | i
72 | C[C@@H]1CN([C@@H](C)CO)C(=O)Cc2cc(NS(C)(=O)=O)ccc2O[C@@H]1CN(C)Cc1ccncc1 | i | i | i | i
73 | O=C(NCCCn1ccnc1)c1csc2ccccc12 | i | i | i | i
74 | CC(C)NC(=O)Nc1cccc2c1O[C@H](CN(C)Cc1ccccc1)[C@H](C)CN([C@@H](C)CO)C2=O | i | i | i | i
75 | CCO[C@H]1OC(C(=O)O)=C[C@@H](C2CCCCC2)[C@@H]1CCCO | i | i | i | i
76 | N#C/C(=C(\N)Sc1ccc(N)cc1)c1ccccc1C(F)(F)F | i | i | i | i
77 | C[C@H](CO)N1C[C@H](C)[C@H](CN(C)Cc2ccc(C(=O)O)cc2)OCCCC[C@H](C)Oc2ccc(NS(=O)(=O)c3ccccc3)cc2C1=O | i | i | i | /

4 entries from above in another layout.
The line under a structure holds: Myc binder, p53 mut binder, STAT3 binder, ID4 binder
58: Cc1noc(C)c1NC(=O)N(C)C[C@H]1OCCCC[C@H](C)Oc2ccc(NC(=O)CCC(F)(F)F)cc2C(=O)N([C@H](C)CO)C[C@@H]1C
  i, i, i, i
59: C[C@@H]1CCCCO[C@@H](CN(C)Cc2ccc(C(=O)O)cc2)[C@@H](C)CN([C@@H](C)CO)C(=O)c2cc(NS(=O)(=O)c3cn(C)cn3)ccc2O1
  i, i, i, /
60: C[C@H](CO)N1C[C@H](C)[C@@H](CN(C)S(=O)(=O)c2cn(C)cn2)Oc2c(NC(=O)C3CC3)cccc2C1=O
  i, i, i, /
61: Cc1noc(C)c1NC(=O)N(C)C[C@@H]1Oc2c(NC(=O)c3ccncc3)cccc2C(=O)N([C@@H](C)CO)C[C@@H]1C
  i, i, i, i
